Autofluor counter: counter-screen for toxin protease inhibitors: compound fluorescence; AID 624483; compound autofluorescence counterscreen, microsphere flow cytometry; active compounds read high; 3.1% of 360,000 active; fluorescence intensity (no concentration beside the values);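 active = at least 3 SD above the mean of all compounds, about 16000 in these data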;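 also: 100 nL of 1 mM stock went into each well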
Numbers without * were called inactive. The list is partial; rates above refer to the full screens.

SMILES | Autofluor counter
CC(C#N)(NC(=O)CN1CCN(S(=O)(=O)c2cccc(F)c2)CC1)C1CC1 (configuration not stated) | 3916
COCCCN1C(=O)C(CC(=O)NCCCN(C)C)CC(C(=O)N2CCCCCC2)=C1C (configuration not stated) | 4586
COCCN1C[C@@H](CO)O[C@@H](n2cnc3c(NCc4ccco4)ncnc32)C1 | 2858
CCOC(=O)C1CCCN(C(=O)c2c(-c3ccccc3)noc2C)CC1 (configuration not stated) | 2957
CC(C)(C)c1ccc(C(=O)N2CCC2(C)C(=O)NCC(F)(F)F)cc1 (configuration not stated) | 3928
CC(=O)Nc1cc(-c2cccc(CO)c2)cn2c(-c3ccc(C(C)=O)cc3)cnc12 | 3863
N#CC(=Cc1ccccn1)c1nc(-c2ccc(Cl)cc2)cs1 | 4039
COc1cc(OC)cc(-c2noc(-c3csc([C@@H]4C[C@H](O)[C@@H](CO)O4)n3)n2)c1 | 3473
CC1(C(=O)NS(=O)(=O)Cc2ccccc2C(F)(F)F)CCN1C(=O)Cc1cccs1 (configuration not stated) | 3934
Cc1ccc(CCNC(=O)CN2C(=O)CSc3ccc(S(=O)(=O)N4CCOCC4)cc32)cc1 | 3823
CCCCCCN1C[C@H](O)[C@@H](n2cc(C3CC3)nn2)C[C@@H]1c1ccc(Cl)cc1 | 4060
COc1cc(CNC(=O)Nc2nc(C(N)Cc3ccc(Cl)cc3)cs2)cc(OC)c1OC (configuration not stated) | 3737
COC(=O)N1C2CCCCC2=NN(c2ccccc2)N1C(=O)OC (configuration not stated) | 4250
O=C(c1ccoc1)N1CCN(c2cc(-c3cccc(F)c3)nc3cc(-c4cccc(Cl)c4)nn23)CC1 | 2909
COc1ccc(NC(=O)[C@H](C)NS(=O)(=O)c2ccc(NC(C)=O)cc2)cc1Cl | 3925
COc1cc(Cl)ccc1OC1(C)CCN(Cc2cccn2-c2nccs2)C1 (configuration not stated) | 4106
Cc1nc2c(OCc3ccc(C(F)(F)F)cc3)cccn2c1N(C)CC1CC1 | 3752
COc1ccc(OC)c(NC(=O)Nc2nc(CN(C)C)cs2)c1 | 3186
C=CCNc1nc2cc(-c3ccccc3C)sc2c(=O)n1C | 4080
COC(=O)[C@]12CCCCC=C1N(Cc1ccccc1)C(=O)[C@H](CC(=O)NCc1ccc(C)o1)C2 | 5959
COc1ccc(NC(=O)N(C)C[C@@H]2OCc3cnnn3CCCC(=O)N([C@H](C)CO)C[C@H]2C)cc1 | 3757
COc1ccc(CN2C(=O)C(CC(=O)NC3CCCCC3)CC(C(=O)N3CCOCC3)=C2C)cc1 (configuration not stated) | 3563
CC1(C(=O)Nc2cccc(OC(F)(F)F)c2)Cc2c(-c3ccc4c(c3)OCO4)ccnc2O1 (configuration not stated) | 2956
CCOC(=O)c1c(C)[nH]c(C(=O)N(C)CC(=O)Nc2ccc(OCC)c(OCC)c2)c1C | 3555
OC(c1ccccc1)c1ncc(-c2ccc(C(F)(F)F)cc2)[nH]1 (configuration not stated) | 3476
CC1(C(=O)NS(=O)(=O)c2ccc(Cl)s2)CCN1C(=O)C1(c2ccc(Cl)cc2)CCC1 (configuration not stated) | 2696
CC(C)(C(=O)N1CCC1(C)C(=O)NS(=O)(=O)c1cccc(Cl)c1)c1ccccc1 (configuration not stated) | 2832
C[C@@H]1CN([C@@H](C)CO)C(=O)c2cc(Br)cnc2O[C@@H]1CN(C)S(C)(=O)=O | 3649
CC(=O)Nc1ccc(-c2ccnc3c2CC(C)(C(=O)NCc2ccc(N4CCN(C)CC4)cc2)O3)cc1 (configuration not stated) | 3826
CC(C)C#Cc1cnc2c(c1)C(=O)N([C@H](C)CO)C[C@@H](C)[C@H](CN(C)C(=O)Nc1ccccc1F)O2 | 2925
CN(N=Cc1ccccc1)C(=S)Nc1ccccc1 | 3315
CCc1nc2ccc(C(=O)NCCCN3CCCC3=O)cn2c1N(CCC(C)C)CCN(C)C | 2902
Nc1cc(N)nc(SCc2ccccc2Cl)n1 | 3469
CC(=O)OC[C@@H]1CN(Cc2ccccc2)C[C@H](n2cnc3c(NC(C)C)ncnc32)O1 | 4196
CCCCn1nc(C(=O)N(C)Cc2nc3ccccc3c(=O)[nH]2)c2ccccc2c1=O | 3881
CC1COC(=C2C(=O)OCC2C)C1 (configuration not stated) | 3524
C[C@H]1CN([C@@H](C)CO)C(=O)c2cc(Br)cnc2O[C@H]1CN(C)S(=O)(=O)c1ccccc1F | 3027
CC1=C(C(=O)N(C(C)C)C(C)C)CC(CC(=O)NC2CCCC2)C(=O)N1CCCN1CCCC1=O (configuration not stated) | 4521
COc1ccc(-n2nnnc2C(c2cccc(OC)c2OC)N2CCN(C/C=C/c3ccccc3)CC2)cc1 (configuration not stated) | 4880
O=C(O)c1ccc(CSc2nc3c(c(=O)[nH]2)CCC3)cc1 | 3724
Cc1ccc(CN2CCC2(C)C(=O)NC(C)C)cc1 (configuration not stated) | 3466
CC1(C)CC2(OC2c2ccccc2)C(=O)c2ccccc21 (configuration not stated) | 3976
CCOC(=O)[C@]12CCC=C1N(Cc1ccco1)C(=O)[C@H](CC(=O)N1CCOCC1)C2 | 4235
CC1(Oc2cccc(F)c2)CCN(Cc2csc3ccccc23)C1 (configuration not stated) | 3781
COCCNc1nc(Oc2cccc(NC(C)=O)c2)c2sc(-c3ccccc3)cc2n1 | 2906
CCOC1=C2[C@H](c3ccccc3)N(S(=O)(=O)c3ccccc3)C[C@H]2n2c(=O)n(-c3ccccc3)c(=O)n2C1 | 6011
CC1(C)CN(CCc2ccccc2)C(=O)[C@H]1CC(=O)Nc1ccc(Br)cc1 | 3625
Nc1nc(N=Nc2ccc(O)cc2)cc(=O)[nH]1 | 2818
C[C@H]1CN([C@@H](C)CO)C(=O)CCCn2cc(nn2)CO[C@@H]1CN(C)C(=O)Nc1cccc2ccccc12 | 2944
CC(=O)Oc1ccc(N(C(C)=O)S(=O)(=O)c2ccccc2)c2ccccc12 | 3143
OCCCNc1ncnc2c1ncn2[C@H]1CN(Cc2ccc(-c3ccccc3)cc2)C[C@@H](CO)O1 | 2698
Cc1ccc2c(=O)n3c(nc2c1)C(CC(C)C)NC(=O)c1cccnc1-3 (configuration not stated) | 3565
O=c1[nH]c2ccccc2n1C1CCN(C(c2ccccc2OC(F)(F)F)c2nnnn2Cc2ccccc2)CC1 (configuration not stated) | 6826
Cc1ccc(NC(=O)c2nc[nH]c2C(=O)Nc2ccccc2F)cc1 | 2970
Oc1ccc(C[C@H]2CN([C@@H](Cc3ccccc3)CN3CCCC3CN3C(=S)NC[C@@H]3Cc3ccccc3)C(=S)N2CCc2ccccc2)cc1 (some centres not stated) | 6000
O=C1NCN(c2ccccc2)C12CCN(C(c1ccccc1OC(F)(F)F)c1nnnn1Cc1ccccc1)CC2 (configuration not stated) | 5971
Cc1ccc(NC(=O)CN2CCN(S(=O)(=O)c3ccc4c(c3)OCCO4)CC2)c(C)c1 | 2854
C/C(=N\NC(=O)c1nnn(-c2nonc2N)c1CSc1ccc(C)cc1)c1cccs1 | 2967
COc1ccc([C@H]2C[C@@H](n3cc(COC(=O)c4ccccc4)nn3)[C@H](O)CN2CC2CCCCC2)cc1 | 3962
O=C(C1CN(C(=O)c2cc3ccccc3o2)c2ccccc2O1)N1CCCCC1 (configuration not stated) | 3266

Structures listed so far containing two or more sulfur atoms:
SMILES | Autofluor counter
CC1(C(=O)NS(=O)(=O)Cc2ccccc2C(F)(F)F)CCN1C(=O)Cc1cccs1 (configuration not stated) | 3934
Cc1ccc(CCNC(=O)CN2C(=O)CSc3ccc(S(=O)(=O)N4CCOCC4)cc32)cc1 | 3823
CC1(C(=O)NS(=O)(=O)c2ccc(Cl)s2)CCN1C(=O)C1(c2ccc(Cl)cc2)CCC1 (configuration not stated) | 2696
Oc1ccc(C[C@H]2CN([C@@H](Cc3ccccc3)CN3CCCC3CN3C(=S)NC[C@@H]3Cc3ccccc3)C(=S)N2CCc2ccccc2)cc1 (some centres not stated) | 6000
C/C(=N\NC(=O)c1nnn(-c2nonc2N)c1CSc1ccc(C)cc1)c1cccs1 | 2967

Continuation.
SMILES | Autofluor counter
CCc1ccccc1NC(=O)CSc1nc2cc(C(=O)NCC3CCCO3)ccc2c(=O)n1CC1CCCO1 (configuration not stated) | 3609
CSC[C@H]1CN(Cc2ccccc2)C(=O)[C@@H]1CC(=O)Nc1ccccc1 | 2937
OC[C@@H]1CN(Cc2ccco2)C[C@H](n2cnc3c(NC4CCC4)ncnc32)O1 | 2851
CCN1C(=O)[C@H]2[C@@H](c3ccc(OC)cc3)N[C@]3(CCCN(Cc4ccc(Br)cc4)C3=O)[C@H]2C1=O | 3881
O=C1NC[C@H](CC2CCCCC2)N(CCc2cc(C(F)(F)F)cc(C(F)(F)F)c2)C1=O | 4385
CCc1nc2ccc(C(=O)NCc3ccccc3OC)cn2c1N(CC)CCN(C)C | 3707
COc1cc(NC(=O)c2sc3ncn(CC(=O)N4CCCCC4C)c(=O)c3c2C)cc(OC)c1OC (configuration not stated) | 3725
COc1ccc(CCNC(=O)C(=O)c2cn(CC(=O)N3CCCC3)c3ccccc23)cc1 | 3612
CC(=O)NCCNc1nc2cc(-c3cc(F)ccc3C)sc2c(=O)n1C | 4105
CCCNC(=O)c1cc(C2CCCCN2C(=O)c2ccc3c(c2)CCO3)on1 (configuration not stated) | 3843
O=C(Nc1ccc2c(c1)OCCO2)C1c2ccccc2OCC(=O)N1Cc1ccccn1 (configuration not stated) | 5106
O=C(OCC(=O)N1CCNC1=O)c1ccccc1Cl | 3808
CNc1ccc2ncc(-c3ccc(OC)c(OC)c3)n2n1 | 3765
O=C(NCC1CCCCC1)c1ccc2sc([C@H]3C[C@H](O)[C@@H](CO)O3)nc2c1 | 3883
Clc1cccc(Cc2c(C3CCCCC3)nc3ccc(Br)cn23)c1 | 4832
FC(F)(F)c1ccccc1Cc1c(-c2cccc(Br)c2)nc2ccc(Cl)cn12 | 4590
CN(C)c1ccc(CNC(=O)C2Cc3c(-c4ccccc4Oc4ccccc4)ccnc3O2)cc1 (configuration not stated) | 2712
CC(C)(C)c1ccc(S(=O)(=O)NC(=O)C2(C)CCN2C(=O)CC2CC2)cc1 (configuration not stated) | 4184
Nc1ccccc1SC(CC(=O)c1ccccc1)c1cccc([N+](=O)[O-])c1 (configuration not stated) | 3956
COc1ccc(OC)c(C=NNC(=O)NN=Cc2cc(OC)ccc2OC)c1 | 3501
CC(C)(C)c1ccc(CC(=O)N2CCC2(C)C(=O)NS(=O)(=O)c2ccccc2)cc1 (configuration not stated) | 4043
COc1cc(CNc2ncnc3c2ncn3[C@H]2CN(Cc3ccncc3)C[C@@H](CO)O2)cc(OC)c1OC | 3734
COc1ccc([C@H]2C[C@H](n3cc(C4CC4)nn3)[C@@H](O)CN2C(=O)C2CCCCC2)cc1 | 3579
S=c1[nH]cc2cnccn12 | 3470
CC(=O)Nc1cc(-c2ccccc2N(C)C)cn2c(-c3ccc(S(C)(=O)=O)cc3)cnc12 | 2766
CC(C)C[C@@H]1O[C@H](CCc2ccccc2)Cc2[nH][nH]c(=O)c21 | 6734
CC(C)[C@@H](N)C(=O)NC[C@H]1O[C@@H](n2cnc3c(=O)[nH]c(N)nc32)[C@H](O)[C@@H]1O | 5922
C[C@H](CO)N1C[C@H](C)[C@@H](CN(C)Cc2cccc(F)c2)Oc2cc(-c3cccc(C#N)c3)ccc2S1(=O)=O | 4020
C[C@@H]1CN([C@H](C)CO)C(=O)CCCn2cc(nn2)CO[C@H]1CN(C)C(=O)Nc1ccccc1 | 2932
CC1(C(=O)NS(=O)(=O)C2CC2)CCCN(C(=O)c2cc3ccccc3s2)C1 (configuration not stated) | 2941

6 compounds drawn at random from the list so far:
SMILES | Autofluor counter
COc1ccc(OC)c(C=NNC(=O)NN=Cc2cc(OC)ccc2OC)c1 | 3501
CC(C)(C)c1ccc(CC(=O)N2CCC2(C)C(=O)NS(=O)(=O)c2ccccc2)cc1 (configuration not stated) | 4043
S=c1[nH]cc2cnccn12 | 3470
Nc1ccccc1SC(CC(=O)c1ccccc1)c1cccc([N+](=O)[O-])c1 (configuration not stated) | 3956
CC1(C(=O)NS(=O)(=O)C2CC2)CCCN(C(=O)c2cc3ccccc3s2)C1 (configuration not stated) | 2941
CN(C)c1ccc(CNC(=O)C2Cc3c(-c4ccccc4Oc4ccccc4)ccnc3O2)cc1 (configuration not stated) | 2712

Next part.
SMILES | Autofluor counter
Cc1cc(Br)cn2c(Cc3cccc(F)c3)c(-c3ccccc3)nc12 | 6842
NC(c1csc(NC(=O)Nc2cccc(Cl)c2)n1)C1CCCCC1 (configuration not stated) | 4091
CCOc1cccc(Cc2c[nH]c(=O)[nH]c2=O)c1 | 4086
CCC(c1nnnn1C(C)(C)C)N1CCC2(CC1)C(=O)NCN2c1ccccc1 (configuration not stated) | 6076
c1ccc(OCCNc2nc(NCC3CC3)nc3cc(-c4ccccc4)sc23)cc1 | 3640
CC(C)C[C@@H]1CN(CCCC[C@H]2CNC(=O)C(=O)N2CCC2CCCCC2)C(=O)C(=O)N1CCC1CCCCC1 | 6220
CCC(C)n1c(SCC(=O)NC2CC2)nc2ccccc2c1=O (configuration not stated) | 3787
Cc1ccccc1NC(=O)CN1CCN(c2ccc(F)cc2)CC1 | 3401
COc1ccccc1Cc1c(-c2ccco2)nc2c3ccccc3ccn12 | 6120
COc1cccc(/C=C/C(=O)N2CCN(S(=O)(=O)c3ccccc3)CC2)c1 | 4055
CNc1ccc(-c2cccc([N+](=O)[O-])c2)cn1 | 3631
O=C1NC(=O)C(=C2CCOC2=O)N1 | 4036
COc1ccc(CN2CCN(Cc3c[nH]c4ccccc34)CC2)cc1OC | 2790
COc1cc(-c2cnc3c(NC=O)cc(-c4ccccc4)cn23)cc(OC)c1OC | 3887
Cc1ccc(NS(=O)(=O)c2ccc(-c3coc(C)n3)cc2)c(Cl)c1 | 3286
C#CCN(C[C@H]1[C@H](OC(=O)NCc2ccccc2)[C@H](OC(=O)NCc2ccccc2)C[C@@H](C(=O)OC)[C@H]1C(=O)OC)S(=O)(=O)c1ccc(C)cc1 | 2804
Cn1ccc2c(-c3ccc(C(=O)O)cc3)cc3c(c21)C1CCC3O1 (configuration not stated) | 5206

Bioassay records from PubChem BioAssay.
